Autofluor counter = compound fluorescence in toxin protease inhibitor counterscreen; compound autofluorescence counterscreen, microsphere flow cytometry; hits give high values; fluorescence intensity (concentration not given with the values); actives 3.1% (n = 360,000);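 active = at least 3 SD above the mean of all compounds, about 16000 in these data; inconclusive = too few beads counted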;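 also: 100 nL of 1 mM stock went into each well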
Sa RN4220 lethal = S. aureus RN4220 growth inhibition | OD600, 16 h | inhibition, % (test concentration not listed) | actives 0.33% (n = 330,000) | AID 1259311;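 active = z-score of -3 or lower and OD600 up to 0.18 on both plates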;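 also: plate controls were untreated cells for no effect and reference antibiotic for full effect; stock transfer was 100 nL into about 80 µL; one replicate is shown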
BJeLR viability = BJeLR cell viability loss; BJeLR (HRASV12) viability, CellTiter-Glo ATP luminescence, 48 h; reference of the scale not given here; inhibition, % (concentration not given with the values); actives 0.17% (n = 300,000); AID 1554;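 active = replicate mean above 50%; inconclusive = above 50% but judged a plate artefact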;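 also: 50 nL library stock added to about 25 µL; numbers are from one replicate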
PrP 5UTR inh = suppresses PrP 5' UTR mRNA reporter expression | inhibition, % (concentration not given with the values) | cell-based PrP 5' UTR mRNA reporter, plate reader | actives 0.35% (n = 340,000);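 active = every replicate at 50% or more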;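 also: 0 = median of the neutral control wells; tested in H4 reporter cells; numbers are from one replicate; inactives centre near -14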
Mtb hypoxia inh = Mtb hypoxia fluorescent reporter inhibition; M. tuberculosis hypoxia-regulated fluorescent reporter, fluorescence; fluorescence inhibition, % (test concentration not listed); actives 0.1% (n = 300,000); AID 1159583;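 active = 35 to 45% if threefold the growth effect, above 45% if 1.5-fold the growth effect; inactive = the rest, general growth blockers included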;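 also: wells of about 50 µL received 100 nL stock; 0% = vehicle wells and 100% = reference inhibitor wells; whole bacteria with a GFP reporter of the hypoxia response; strong numbers were not always called active; many hits fall short of the cut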
ugtP null kill = compounds lethal to S. aureus RN4220 ugtP deletion mutant. growth inhibition, % (no concentration beside the values). OD600 growth, 16 h; some inactives read as strong as hits. AID 1259309. actives 0.54% (n = 330,000);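 active = z-score under -3 and OD600 up to 0.15 on both plates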;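 also: plate controls were untreated wells for no effect and antibiotic for full effect; wells of about 80 µL received 100 nL stock; the first replicate is given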
Mtb hypoxia inh growth = recorded beside Mtb hypoxia inh, whose call it bears; growth inhibition, %; measured here: M. tuberculosis growth (absorbance);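 0% = vehicle and 100% = reference antibiotic; read after six days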
* hit, by the source's call; ? = inconclusive; nt = no result given.

SMILES	Autofluor counter	Sa RN4220 lethal	BJeLR viability	PrP 5UTR inh	Mtb hypoxia inh	Mtb hypoxia inh growth	ugtP null kill
COC(=O)c1ccc(C(=O)N2CCCC(Nc3ccc(C(C)C)cc3)C2)nc1 (stereo unspecified)	5319	0.9	9	3	-6	3	-2
CCc1ccc(S(=O)(=O)/N=C2\C=C(Nc3ccc(C(=O)O)cc3)C(=O)c3ccccc32)cc1	4391	nt	9	-10	nt	nt	nt
Cc1cc(-n2c(C)cc(C(=O)CN3C(=O)NC4(CCCCCC4)C3=O)c2C)no1	7447	3.3	-8	-7	6	-5	9
O=C(Nc1cccc2ccccc12)/C(=C/c1ccc([N+](=O)[O-])cc1)NC(=O)c1ccccc1	7715	7.3	-11	-17	6	5	-12
COc1ccc(N(C)S(=O)(=O)c2cccc(C(=O)OCC(=O)N3CC(C)CC(C)C3)c2)cc1 (stereo unspecified)	3145	4.4	nt	-9	7	5	5
CCOC(=O)C1(CCOC)CCN(Cc2nc(C(C)C)cs2)CC1	3167	3.4	-2	4	10	9	9
CC(C)(C)OC(=O)NCC1CCC(C(=O)NC[C@H](CC(=O)O)c2ccc(Cl)cc2)CC1 (stereo partly specified)	2950	-0.4	-12	-7	-3	-6	-2
COc1ccc(-n2c(=O)[nH]cc(C(=O)N3CCCc4ccccc43)c2=O)cc1	10028	1.2	5	-31	-3	-1	-4
Cc1sc2nc(C)n(/N=C/N(C)C)c(=O)c2c1C	4333	nt	5	-8	nt	nt	nt
Cc1c(C)n(Cc2ccccc2)c2ccc(C(=O)NCCN3CCOCC3)cc12	5569	0.9	5	-22	-2	8	-6
CSCC[C@H](NC(=O)N1CCn2c1nc1ccccc12)C(=O)NCc1ccco1	5682	-0.5	5	-4	9	2	1
Cc1ccccc1C(=O)NNC(=O)c1ccoc1C	8200	1.5	-1	-19	4	6	4
COc1ccccc1/C=C(/CC(=O)NCc1ccccc1)c1nc2ccccc2s1	2567	-1.3	-22	-24	0	13	17
O=C(Oc1cccc([N+](=O)[O-])c1)N1CCCCC1	2556	5.3	1	-18	19	24	1
COc1ccc(CNC(=O)C(C)OC(=O)CCN2C(=O)C3CC=CCC3C2=O)cc1 (stereo unspecified)	5439	2.9	-5	-22	4	6	11
N#CCc1ccc(OC(=O)c2cccnc2Cl)cc1	5852	3.2	2	-95	12	-7	3
COc1ccccc1CN1CCNC(=O)C1CC(=O)NCC1CCOCC1 (stereo unspecified)	6001	3.5	-1	3	-2	-3	2
CCCCNC(=O)Nc1ncn[nH]1	9355	4.7	0	-6	4	7	0
Cc1ccc(SC(C)C(=O)NCC(C)C)cc1 (stereo unspecified)	10806	3.0	2	-28	14	4	5
COc1cccc(C=Nn2nnnc2N)c1OCC#N	nt	3.2	nt	nt	-8	-1	5
COc1ccc(OCC(=O)Nc2ccc(S(=O)(=O)N3CCOCC3)cc2)cc1	4164	2.7	-9	-16	9	12	8
CCN1N=C(c2ccccc2)CCC1=O	3914	1.0	-20	-14	-4	3	1
CCn1cc(C=C2C(=O)NC(=O)NC2=O)c2ccccc21	4022	1.9	17	-6	-5	-7	0
COc1ccc(CCCc2nnc(SCC(=O)N/N=C\c3ccc(O)c(OC)c3)o2)cc1C	2684	nt	-4	-16	nt	nt	nt
Cc1ccccc1C(=O)NNC(=S)NC(=O)COc1ccccc1	11579	59	-2	-17	3	-3	26
CCOC(OCC)c1cn(Cc2ccc(C(=O)c3ccccc3)cc2)nn1	2952	-14	7	-16	11	7	-4
O=S(=O)(c1ccc(C2CCCCC2)cc1)N1CCCC1	9291	1.5	-2	-20	4	6	30
O=C(CSc1nc(=O)n2ccccc2n1)NC1CCCCC1	5406	0.7	-1	15	-6	5	0
CCN(CC)S(=O)(=O)c1ccc2nc(NC(=O)c3ccco3)sc2c1	4444	6.3	-1	-30	4	5	-5
CCCNCc1cc(OCC)c(OCC(=O)Nc2ccccc2)cc1Br	4606	6.8	0	-63	9	9	2
Cc1noc(C)c1COC(=O)CCc1ccc(S(=O)(=O)N2CCCCC2)cc1	4245	4.7	-1	-4	9	1	7
N#CCCCN1C(=O)C(=C(C#N)C#N)c2ccccc21	2049	51	1	-11	1	-2	21
Nc1ccc(N=Nc2ccccc2Cl)c(N)n1	3799	-6.2	2	-63	17	-3	7
Cc1ccccc1N1CC(C(=O)Nc2ccncc2)CC1=O (stereo unspecified)	4742	1.7	2	-22	6	2	5
CC(C)(C)NC(=O)C(=O)NN=C1CCCCCCCCCCC1	4279	4.1	-3	-4	15	4	3
O=C(c1cc(S(=O)(=O)N2CCOCC2)ccc1F)N1CCc2ccccc21	3092	2.4	nt	9	-16	-9	1
COC(=O)N(C)c1ccccc1C(=O)N1CCOCC1	9962	0.0	1	-21	-5	2	-6
COc1ccc(/C=C(\NC(=O)c2ccccc2)C(=O)N/N=C/c2sccc2C)cc1	2670	nt	-2	-24	nt	nt	nt
Cc1cc(=O)[nH]c(NN=C(CC(C)C)CC(C)C)n1	11210	2.8	0	-33	8	-1	2
CCOC(=O)c1sc2ccccc2c1OC(=O)c1ccccc1OC	2057	5.7	1	-31	7	0	4
O=C(NCCO)Nc1ccc2nsnc2c1	2026	1.7	4	-8	-1	11	1
Cc1cccc(Cn2cnc3c(nnn3Cc3ccc(Cl)cc3)c2=O)c1	11530	0.6	-9	-3	-3	0	-6
CSCCC1NC(=O)N(CC(=O)Nc2c(C(C)C)cccc2C(C)C)C1=O (stereo unspecified)	4740	1.7	-6	-24	3	5	-69
CNC(=O)c1c(NC(=O)C2=COCCO2)sc2c1CCCC2	5773	-3.3	-6	-25	2	14	-10
CCOC(=O)CCP(=O)(O)C(O)c1ccc(OC)cc1 (stereo unspecified)	2817	7.3	0	-12	6	3	-2
COc1ccc(C(=O)OCC(=O)NCC2CCCO2)cc1S(=O)(=O)N1CCCc2ccccc21 (stereo unspecified)	4631	3.9	-1	-28	0	0	1
C=CCn1c(SCC(=O)NCc2ccco2)nnc1C1CCCCC1	5146	2.4	-4	-14	4	5	3
Cc1cc(C)c2cc(CN(CCN(C)C)C(=O)Nc3ccccc3Cl)c(=O)[nH]c2c1	8353	-3.1	1	-15	4	11	7
Clc1ccc(N2CCOCC2)nn1	4469	8.1	-5	-11	1	-3	6
Cc1cc2c(C(F)(F)F)cc(=O)oc2c2c1NCCC2	4542	0.6	9	-14	-5	-1	6
Cc1cccn2c(=O)c3cc(C(=O)NCCc4ccccc4)c(=N)n(CC4CCCO4)c3nc12 (stereo unspecified)	3848	2.1	4	-7	-5	-1	11
COCCn1c(-c2ccc(C)cc2)nc2oc3cc(OC)ccc3c(=O)c2c1=O	4121	4.8	1	-9	1	-7	-8
CC(C)(C)N(Cc1cc2ccccc2[nH]c1=O)C(=O)c1cccc([N+](=O)[O-])c1	4666	0.1	-2	-5	-6	-2	2
O=[N+]([O-])c1cccc(-c2nnc(CNC3CC3)o2)c1	3202	1.9	0	-14	-1	1	-7
CC(=NNC(=O)c1ccoc1C)c1ccc(NC(=O)c2ccncc2)cc1	nt	2.3	nt	nt	2	-1	3
O=C(O)c1nn(CCOc2c(Cl)cccc2Cl)c(=O)c2ccccc12	3602	1.7	-6	18	-11	8	-2
O=C(N=C1SC2CS(=O)(=O)CC2N1c1ccc(Br)cc1F)C1CC1 (stereo unspecified)	?	3.2	0	11	0	5	0
CNC(=O)COC(=O)c1ccccc1NC(=O)c1ccco1	6035	4.5	-4	-20	16	9	1
Cc1cc(N2CCC(C(=O)NCC3CC3)CC2)nc(-c2ccccc2)n1	4112	-1.8	-2	-9	nt	nt	0
CC(C)[C@H](NC(=O)C1(c2ccccc2)CCN(C(=O)OC(C)(C)C)CC1)C(=O)O	4330	0.5	-6	-16	-9	-5	-1
Carrying on:
SMILES	Autofluor counter	Sa RN4220 lethal	BJeLR viability	PrP 5UTR inh	Mtb hypoxia inh	Mtb hypoxia inh growth	ugtP null kill
C=CCN(CC=C)Cc1nc(N)nc(Nc2ccccc2C)n1	4736	6.9	3	-18	2	-4	8
O=C(NCCCN1CCOCC1)C(=O)N/N=C/c1ccccc1Cl	4616	nt	4	-10	nt	nt	nt
CC1CCC(NC(=O)c2cccc(S(=O)(=O)NCc3ccccc3)c2)CC1 (stereo unspecified)	?	2.5	14	-23	10	0	11
O=C(CCC1CCCN(C(=O)c2ccsc2)C1)NCc1ccc(F)c(F)c1 (stereo unspecified)	3827	3.8	26	-5	14	2	3
Fc1ccc(C2CC(c3ccc(F)cc3)n3ncnc3N2)cc1 (stereo unspecified)	5926	5.4	6	-26	-5	4	-1
Cc1ccc(NC(=O)COC(=O)CCc2c[nH]c3ccccc23)c(C)c1	7867	6.6	nt	14	23	16	2
COc1ccc(N(CC(=O)Nc2ccc(C(N)=O)cc2)S(=O)(=O)c2ccc(C)c([N+](=O)[O-])c2)cc1	4451	2.9	-6	-12	-3	-7	4
Cc1c(C(=O)N2CCN(CCc3ccccc3)CC2)oc2ccccc12	24130*	-2.0	-3	-3	5	9	7
COC(=O)c1ccc(/C=N/NC(=O)CC(=O)NCc2cccnc2)cc1	4327	nt	2	-17	nt	nt	nt
CC(=O)Nc1cccc(NC(=O)COC(=O)CO/N=C(\C)c2ccc3c(c2)OCO3)c1	5963	nt	3	-7	nt	nt	nt
Cc1ccc(C)n1-n1cnc2sc3c(c2c1=O)CCC3	12374	8.1	-4	-12	2	2	9
Cc1nn2c(N)csc2nc1=O	nt	-7.1	-6	nt	4	14	-4
COC(=O)c1cc(C(=O)OC)n(Cc2ccc(F)cc2)n1	5088	1.9	-2	-13	11	9	8
OC(CN1CCCCC1)Cn1c2ccc(Cl)cc2c2cc(Cl)ccc21 (stereo unspecified)	5123	-13	9	-25	10	21	-4
COc1ccc(NC(C)=O)cc1NC(C)c1nc2sc(C)c(C)c2c(=O)[nH]1 (stereo unspecified)	6397	7.8	-2	-7	-3	5	2
CCOC(=O)C1(C/C(C)=N/NC(N)=O)CC(C)(C)OC1=O (stereo unspecified)	2071	nt	-13	-18	nt	nt	nt

Results in Mtb hypoxia inh growth and BJeLR viability, for 2 of the compounds above:
| Compound | Mtb hypoxia inh growth | BJeLR viability |
| --- | --- | --- |
| C=CCN(CC=C)Cc1nc(N)nc(Nc2ccccc2C)n1 | -4 | 3 |
| O=C(CCC1CCCN(C(=O)c2ccsc2)C1)NCc1ccc(F)c(F)c1 (stereo unspecified) | 2 | 26 |

Part of the list above, set out differently.
| smiles | Autofluor counter | Sa RN4220 lethal | BJeLR viability | PrP 5UTR inh | Mtb hypoxia inh | Mtb hypoxia inh growth | ugtP null kill |
| --- | --- | --- | --- | --- | --- | --- | --- |
| COC(=O)N(C)c1ccccc1C(=O)N1CCOCC1 | 9962 | 0.0 | 1 | -21 | -5 | 2 | -6 |
| COc1ccc(/C=C(\NC(=O)c2ccccc2)C(=O)N/N=C/c2sccc2C)cc1 | 2670 | nt | -2 | -24 | nt | nt | nt |
| Cc1cc(=O)[nH]c(NN=C(CC(C)C)CC(C)C)n1 | 11210 | 2.8 | 0 | -33 | 8 | -1 | 2 |
| CCOC(=O)c1sc2ccccc2c1OC(=O)c1ccccc1OC | 2057 | 5.7 | 1 | -31 | 7 | 0 | 4 |
| O=C(NCCO)Nc1ccc2nsnc2c1 | 2026 | 1.7 | 4 | -8 | -1 | 11 | 1 |
| Cc1cccc(Cn2cnc3c(nnn3Cc3ccc(Cl)cc3)c2=O)c1 | 11530 | 0.6 | -9 | -3 | -3 | 0 | -6 |
| CSCCC1NC(=O)N(CC(=O)Nc2c(C(C)C)cccc2C(C)C)C1=O (stereo unspecified) | 4740 | 1.7 | -6 | -24 | 3 | 5 | -69 |
| CNC(=O)c1c(NC(=O)C2=COCCO2)sc2c1CCCC2 | 5773 | -3.3 | -6 | -25 | 2 | 14 | -10 |
| CCOC(=O)CCP(=O)(O)C(O)c1ccc(OC)cc1 (stereo unspecified) | 2817 | 7.3 | 0 | -12 | 6 | 3 | -2 |
| COc1ccc(C(=O)OCC(=O)NCC2CCCO2)cc1S(=O)(=O)N1CCCc2ccccc21 (stereo unspecified) | 4631 | 3.9 | -1 | -28 | 0 | 0 | 1 |
| C=CCn1c(SCC(=O)NCc2ccco2)nnc1C1CCCCC1 | 5146 | 2.4 | -4 | -14 | 4 | 5 | 3 |
| Cc1cc(C)c2cc(CN(CCN(C)C)C(=O)Nc3ccccc3Cl)c(=O)[nH]c2c1 | 8353 | -3.1 | 1 | -15 | 4 | 11 | 7 |
| Clc1ccc(N2CCOCC2)nn1 | 4469 | 8.1 | -5 | -11 | 1 | -3 | 6 |
| Cc1cc2c(C(F)(F)F)cc(=O)oc2c2c1NCCC2 | 4542 | 0.6 | 9 | -14 | -5 | -1 | 6 |

Assay outcomes deposited in PubChem BioAssay by several laboratories.
